Hsc70 ATP site: small molecules displacing fluorescent ligand from Hsc70 – biochemical, fluorescence polarization, primary screen (AID 568) | Hsc70 fluorescence polarization, probe displacement; higher % means a stronger effect; strong numbers were not always called active | one-dose displacement, % at 20 µM; IC50 in µM for titrated hits | 83,000 tested, under 10 active;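 active means displacement above 50% without optical interference and an IC50 on retest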;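 further: ATPase domain with a fluorescein-tagged ATP probe; 0% = vehicle and 100% = excess ADP; read after one hour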
MT1-MMP reporter: MT1-MMP gene expression reporter suppression – cell-based, luciferase reporter, luminescence (AID 618); MT1-MMP promoter luciferase reporter cells, luminescence; calls from a first round at 10 µM; hits with a dose series show EC50 in µM; 87,000 tested, 0.62% active;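 active means over half of the reporter light lost at 10 µM or EC50 under 50 µM; inactive means the rest and hits that failed the dose series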;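 further: actives suppress MT1-MMP promoter-driven transcription so potencies describe inhibitors; HT1080 fibrosarcoma cells; overnight exposure; toxic or luciferase-blocking compounds were not removed from the actives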
WNV protease inh: blocks West Nile virus NS2B-NS3 protease activity; z-score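 (tested at a level between 10 and 100 µM)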; WNV NS2B-NS3 protease, fluorogenic substrate Ex360/Em465; hits give low values; 65,000 tested, 0.18% active; P06935;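 active means z-score at -3 or under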;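 further: score is relative to mean and spread of the compound wells of a plate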
Target sequence (P06935 1371-1501 limits assumed): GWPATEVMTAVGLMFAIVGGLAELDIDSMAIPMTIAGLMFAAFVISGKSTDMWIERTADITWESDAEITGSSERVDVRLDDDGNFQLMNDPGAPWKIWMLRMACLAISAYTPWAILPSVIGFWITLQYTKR
Target sequence (P06935 1502-1679 limits assumed): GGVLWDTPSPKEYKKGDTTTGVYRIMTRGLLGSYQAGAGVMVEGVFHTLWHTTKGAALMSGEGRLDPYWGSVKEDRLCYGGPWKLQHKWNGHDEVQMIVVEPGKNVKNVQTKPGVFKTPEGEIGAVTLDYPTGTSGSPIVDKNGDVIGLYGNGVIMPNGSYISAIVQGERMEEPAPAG
* marks the source's active call; other numbers are inactive results; i = inactive; x = not tested or not shown.

canonical_smiles	Hsc70 ATP site	MT1-MMP reporter	WNV protease inh
Cn1c(NC(=O)c2cccc(C(F)(F)F)c2)cc(=O)n(C)c1=O	-1.5%	i	-0.19
COc1ccccc1CCNC(=O)c1cnn2c(C(F)F)cc(C)nc12	0.0%	i	0.12
Cc1nc(=O)c(-c2ccccc2)c(C)n1-c1ccc(C(=O)O)cc1	-4.7%	i	0.63
COc1cccc(C(=O)N(c2ccc(OC)cc2OC)C2C=CS(=O)(=O)C2)c1 (stereo unspecified)	-3.4%	i	-0.49
COC(=O)c1ccccc1NC(=O)c1ccccc1NS(C)(=O)=O	4.7%	i	-1.1
O=C(CN1CCCCC1)N1CCCc2c1c(=O)oc1ccc(OCc3ccccc3)cc21	0.6%	i	x
Cc1c(C(=O)Nc2ccc(F)cc2)oc2ccc(S(=O)(=O)N3CCC4(CC3)OCCO4)cc12	-1.1%	i	0.57
CCN(CC)S(=O)(=O)c1ccc2c(c1)c(=O)c(C(=O)NCCCN(C)c1ccccc1)cn2C	2.6%	i	1.1
CCCCOC(=O)c1ccc(NC(=O)c2ocnc2C)cc1	1.3%	i	0.54
Cc1cccc(C)c1N1C(=O)c2ccccc2C1=O	-5.4%	i	-0.47
O=C(Nc1nc2c(Cl)ccc(Cl)c2s1)c1ccco1	-3.1%	i	-0.17
CCn1c(SCC(=O)Nc2cccc(NC(=O)c3cccs3)c2)nnc1-c1ccncc1	-3.2%	i	-0.69
O=C(CSc1nc2cc(Cl)ccc2s1)NC(=O)NCc1ccco1	-6.7%	i	-1
CC1CCCCC1NC(=O)c1ccc(CNc2c(N3CCCC3)c(=O)c2=O)cc1 (stereo unspecified)	5.4%	i	-0.78
COc1ccc2c(c1)SCC(=O)N2C	4.6%	i	x
O=C(CN1CCOCC1)Nc1ccc(S(=O)(=O)N2CCCCCC2)cc1	-7.1%	i	-0.05
CC(C)[C@H](NC(=O)NCc1ccco1)C(=O)O	1.1%	i	0.97
Cn1cc(Cl)c(C(=O)N(Cc2ccccc2)c2ccccn2)n1	2.0%	i	1.6
O=C(NC1CCCCC1)N1CCC(c2nc3ccccc3[nH]2)CC1	-4.3%	i	2
CCCc1cc(=O)oc2cc(C)cc(O)c12	0.6%	i	x
Cc1cc(C)n(CC(O)COc2ccccc2)n1 (stereo unspecified)	-6.9%	i	x
Cc1ccc(NC(=O)CSCC(N)=O)cc1C	-1.9%	i	0.72
CC(=O)NC1(C(F)(F)F)NC(=O)N(C2CCCCC2)C1=O (stereo unspecified)	1.7%	i	x
COc1cccc(CNC2CCCC2)c1	4.2%	i	-0.32
Cn1c(=O)n(CC(=O)Nc2cccnc2)c2ccccc21	4.7%	i	-0.63
CCOC(=O)c1cc(CN2CCOCC2)oc1-c1ccccc1	-6.8%	i	1.1
O=C(c1ccco1)N1CCN(C2CCCC2)CC1	0.2%	i	0.46
C=CCN(CC(=O)NCc1ccc(F)cc1)C(=O)c1csnn1	-1.3%	i	x
COc1ccccc1CN(Cc1cc2cc(C)ccc2[nH]c1=O)Cc1nnnn1Cc1ccco1	-7.1%	i	0.11
CC1CCCCN1C(=O)CSc1nnc(-c2ccc(Cl)s2)o1 (stereo unspecified)	-0.5%	i	-1.2

Remaining list, next part:
canonical_smiles	Hsc70 ATP site	MT1-MMP reporter	WNV protease inh
CCC(Sc1ncccc1C(=O)OC(C)C)C(=O)NCc1ccco1 (stereo unspecified)	-1.8%	i	x
Cc1ccc(CNC(=O)CN(C)S(=O)(=O)c2cccc3cccnc23)cc1	2.3%	i	-1.3
CCOCCc1nnc(NC(=O)c2ccc(OC)c(OC)c2)s1	4.1%	i	0.16
O=C(Cn1nnc(-c2ccncc2)n1)N1CCc2ccccc21	0.7%	i	0.47
CCOC(=O)C1CCCN(C(=O)c2ccc(OCC)cc2)C1 (stereo unspecified)	-0.3%	i	-0.03
Cc1ccc(Nc2oc(C)nc2C#N)cc1	7.0%	i	0.46
Cc1cc2c(cc1C)NC(c1cccnc1)C1=C(CC(C)(C)CC1=O)N2 (stereo unspecified)	-2.3%	i	-0.41
O=C(CCCn1nnc(-c2cccnc2)n1)c1ccc(F)cc1	-7.2%	i	0.31
CCOc1ccc(N2C(=O)CC(N3CCN(c4ccc(C(=O)c5ccncc5)cc4)CC3)C2=O)cc1 (stereo unspecified)	-2.3%	i	0.05
Cc1ccc(S(=O)(=O)N(Cc2ccc(F)cc2)Cc2ccco2)cc1	5.4%	i	-1
O=C(O)CC1Sc2ccccc2NC1=O (stereo unspecified)	-8.3%	i	2.6
COC(=O)C(C)n1cnc2c(nnn2-c2cccc(Cl)c2)c1=O (stereo unspecified)	3.1%	i	-0.02
CC(C)N(C(=O)Cn1c(SCC(=O)Nc2nccs2)nc2ccccc21)C(C)C	5.3%	i	x
CCSc1nnc(NC(=O)CSc2nnc(Cc3cccn3C)n2-c2ccc(C)cc2)s1	4.6%	i	-0.04
CCOC(=O)C1CCCN(Cc2ccc3c(c2)OCO3)C1 (stereo unspecified)	4.4%	i	-0.63
C=CCn1c(O)c(C(CC)=NCCN2CCOCC2)c(=O)[nH]c1=O	-4.5%	i	0.75
Cc1cccc2cc(CN(Cc3ccc(F)cc3)C(=O)N3CCOCC3)c3nnnn3c12	1.1%	i	x
C=CCn1c(C)cc(C(=O)CN2C(=O)NC3(CCCc4ccccc43)C2=O)c1C (stereo unspecified)	-1.7%	i	x
O=c1nc(C(F)(F)F)nc2ccccn12	8.7%	i	-0.98
CC(=O)Nc1sc2c(c1CN1CCN(c3ccccn3)CC1)CCCC2	0.9%	i	0.61
COc1ccc(C2=NOC3(CC(=O)N(c4ccc(F)cc4)C3=O)C2)c(OC)c1 (stereo unspecified)	3.5%	i	x
CN(c1ccccc1)S(=O)(=O)c1cc(C(=O)N2CCN(c3ccccn3)CC2)ccc1Cl	-3.4%	i	-0.38
Cc1nn(Cc2ccc(C(=O)NC3CCCCC3)o2)c(C)c1Br	7.0%	i	-0.39
COc1ccc(NC(=O)Cn2nnc(-c3ccccc3F)n2)cc1	-3.9%	i	0.26
O=C(c1ccc(Cl)cc1)c1ccc(OCC(=O)N2CCOCC2)cc1	-0.8%	i	0.28
CC(=O)OC(C(=O)NC1CCCCC1)c1ccncc1 (stereo unspecified)	-4.1%	i	-0.1
COc1ccccc1Nc1nnc(SCC(=O)c2cc(C)n(CC3CCCO3)c2C)s1 (stereo unspecified)	4.4%	i	x
N#Cc1cn(-c2ccccc2)nc1-c1ccco1	2.7%	i	x
COC(=O)CN1C(=O)Nc2ccc(Br)cc2C1c1ccccc1 (stereo unspecified)	-2.5%	i	x
CN(C(=O)c1ccncc1)c1nnc(-c2ccncc2)s1	1.9%	i	0.44

3 of the compounds above, with two lines to a compound.
Second line of a record: Hsc70 ATP site | MT1-MMP reporter | WNV protease inh
O=c1nc(C(F)(F)F)nc2ccccn12
  8.7% | i | -0.98
CC(=O)Nc1sc2c(c1CN1CCN(c3ccccn3)CC1)CCCC2
  0.9% | i | 0.61
COc1ccc(C2=NOC3(CC(=O)N(c4ccc(F)cc4)C3=O)C2)c(OC)c1 (stereo unspecified)
  3.5% | i | x

Continued:
canonical_smiles	Hsc70 ATP site	MT1-MMP reporter	WNV protease inh
O=C1CC(N2CCOCC2)C(=O)N1c1cc(Cl)cc(Cl)c1 (stereo unspecified)	-1.1%	i	1.6
COc1ccc(CNC(=O)c2cc(C3CC3)on2)cc1	-6.0%	i	-1.5
COc1ccc(S(=O)(=O)n2nc(OC(=O)c3ccccc3Br)cc2N)cc1	-5.4%	i	-4.2*
Cc1cc(C)nc(NC(=O)CSc2nc3ccccc3o2)n1	3.6%	i	x
COc1cc(S(=O)(=O)N2CCN(Cc3ccccc3)CC2)ccc1Br	-1.8%	i	0.31
Cc1cccc(N(CC(=O)NC2CCCCC2)C(=O)CCC(=O)Nc2cc(C)ccn2)c1	3.4%	i	-1.4
COc1ccc(S(=O)(=O)NCCSC(C)(C)C)cc1Cl	3.0%	i	0.0072
CCOc1ccccc1C(=O)Nc1cc(=O)n(C)c(=O)n1C	2.2%	i	-0.43
Cc1cc(OC(=O)c2ccccc2)n(CCC#N)n1	1.8%	i	-11*
CC(C)COC(=O)C(C#N)c1nc2ccccc2nc1N1CCN(Cc2ccc3c(c2)OCO3)CC1 (stereo unspecified)	-4.5%	i	-0.28
CS(=O)(=O)N1CCN(C2Cc3ccccc3C2)CC1	0.9%	i	x
O=C1C2C3C=CC(C3)C2C(=O)N1c1n[nH]c(-c2ccccc2)n1 (stereo unspecified)	1.3%	i	x
N#Cc1nc(-c2cccs2)oc1NCc1ccccc1	0.6%	i	1.1
O=C(NCc1ccccn1)c1nnc(Cc2ccc(Cl)cc2)o1	2.1%	i	-0.77
O=C(Nc1ccccc1Cl)NC1(C(=O)NCCCN2CCOCC2)CCCCC1	-5.5%	i	-0.58
Cc1ccc(SCC(=O)N2CCOCC2)cc1	-0.3%	i	0.59
Nc1nc(N2CCCCC2)nc2ccccc12	-3.1%	i	-0.21
O=C(O)c1ccc(S(=O)(=O)c2ccccc2)cc1	-2.1%	i	0.36
CC(C)CC(=O)NC1(C(F)(F)F)C(=O)N(Cc2ccccc2)C2=C1C(=O)CC(C)(C)C2 (stereo unspecified)	-1.1%	i	x
COc1ccc(CCC(=O)N2CCN(C3CCCCC3)CC2)cc1	0.4%	i	1.2
COc1ccc2cc(/C=C/C(=O)c3ccco3)c(Cl)nc2c1	-0.3%	i	x
COc1ccc(OC)c(NC(=O)Nc2ccccc2C)c1	-1.5%	i	1.5
Cn1c(Cc2ccccc2)nnc1SCC(=O)c1ccc(Br)s1	-4.1%	i	0.81
CCOC(=O)C1CCN(C(=O)c2sc3nc(-c4ccc(F)cc4)cn3c2C)CC1	2.8%	i	0.84
CCCCc1c(O)nc(SCC(=O)N2CCOCC2)[nH]c1=O	-9.0%	i	0.29
COc1ccc(C(=O)Nc2cccc(C(=O)N3CCN(C)CC3)c2)cc1	0.3%	i	0.74
Cc1[nH]c2ccccc2c1C(=O)CN1CCCCC1C (stereo unspecified)	-3.9%	i	-0.07
Cc1ccc(-c2noc(CCCC(=O)Nc3cccnc3)n2)cc1	-0.1%	i	-0.93
Cc1cc(N2CCN(C)CC2)nc2ccc(NC(=O)CCC(=O)NCc3ccco3)cc12	-0.1%	i	1.5
COc1ccc(N2CCN(C(=O)CNC(=O)Cn3c(C)cc4ccccc4c3=O)CC2)cc1	1.7%	i	-0.77

Reformatted: 2 of the compounds above.
Results follow in this order: Hsc70 ATP site, MT1-MMP reporter, WNV protease inh
CS(=O)(=O)N1CCN(C2Cc3ccccc3C2)CC1
  0.9%, i, x
O=C1C2C3C=CC(C3)C2C(=O)N1c1n[nH]c(-c2ccccc2)n1 (stereo unspecified)
  1.3%, i, x

Following part
canonical_smiles	Hsc70 ATP site	MT1-MMP reporter	WNV protease inh
Cc1cccc(-c2nc(CS(=O)CC(=O)NCCCSC3CCCCC3)c(C)o2)c1 (stereo unspecified)	-4.6%	i	-1.1
COC(=O)c1c(NC(=O)CSc2ncnc3c2cnn3-c2ccccc2Cl)sc2c1CCCC2	-7.9%	i	x
CCC1CCCCN1C(=O)N[C@@H](CCSC)C(=O)OC (stereo partly specified)	1.8%	i	-0.38
Cc1cccc(N(CC(=O)NCc2ccccc2)C(=O)Cn2nnc(-c3ccc(C)o3)n2)c1	-6.0%	i	1.1
COc1ccc(C2(O)CCN(C(=O)NC3CCCCC3)CC2)cc1	9.0%	i	0.78
CCN1C(=O)CSc2ccc(C(=O)NCCCN3CCOCC3)cc21	2.6%	i	-0.4
CCOC(=O)C(C(=O)OCC)N(C#N)c1nc(SC)nc(N(C)C)n1	2.9%	i	2
CNS(=O)(=O)c1cccc2cccnc12	5.1%	i	x
O=C(O)[C@H]1CCCC[C@H]1C(=O)NCCNC(=O)[C@@H]1CCCC[C@@H]1C(=O)O	0.6%	i	x
CSc1nc2nc(C(F)(F)F)cc(-c3ccccc3)n2n1	3.2%	i	x
O=C(OCCN1C(=O)CCC1=O)c1ccc(S(=O)(=O)N2CCCCC2)cc1	3.2%	i	1.3
Cc1cc(C(=O)Nc2sc(C)c(C)c2C#N)c(C)o1	-8.2%	i	-1
CCCOc1ccc(Cn2cnc3ccccc32)cc1	-4.1%	i	-0.3
COCc1nc(-c2cc(OC)c(OC)c(OC)c2)no1	0.9%	i	1.8
CCOc1ccc(N2C(=O)CC(N3CC(C)OC(C)C3)C2=O)cc1 (stereo unspecified)	-6.8%	i	-0.84
COc1cc(N2CN=c3s/c(=C\c4ccccn4)c(=O)n3C2)cc(OC)c1OC	2.8%	i	-0.57
CCOC(=O)c1c(C)oc(NC(=O)COc2ccc(Cl)cc2C)c1C#N	79%	i	-0.61
C=CCn1c(Br)nc2c1c(=O)n(C)c(=O)n2C	-1.6%	i	-0.31

From PubChem BioAssay
